FPR binder = ligands of human FPR, also counter-screen for FPRL1 ligands; P21462; FPR-expressing cells, fluorescent ligand binding, flow cytometry; inhibition, %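 (tested at 6.7 µM)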; hit rate 0.74% among 24,000;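 note: 0% = buffer wells and 100% = receptor blocker peptide wells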
Target sequence (P21462 whole entry, looked up): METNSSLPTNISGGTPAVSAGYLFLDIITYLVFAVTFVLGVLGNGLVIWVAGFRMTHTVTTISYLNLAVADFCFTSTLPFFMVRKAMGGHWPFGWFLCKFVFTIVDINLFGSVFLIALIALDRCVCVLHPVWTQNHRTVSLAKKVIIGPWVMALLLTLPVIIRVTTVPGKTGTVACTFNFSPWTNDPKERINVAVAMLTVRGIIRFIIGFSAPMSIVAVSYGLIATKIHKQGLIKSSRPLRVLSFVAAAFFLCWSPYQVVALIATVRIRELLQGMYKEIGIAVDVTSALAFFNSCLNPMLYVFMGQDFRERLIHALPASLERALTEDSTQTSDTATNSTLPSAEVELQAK
FPRL1 ligand = ligands of human FPRL1, also counter-screen for FPR ligands; hit rate 0.3% among 24,000; AID 441; inhibition, %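 (tested at 6.7 µM)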; FPRL1-expressing cells, fluorescent ligand binding inhibition, flow cytometry;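 note: 0% = buffer alone and 100% = receptor blocker peptide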
Target sequence (P25090 whole entry, looked up): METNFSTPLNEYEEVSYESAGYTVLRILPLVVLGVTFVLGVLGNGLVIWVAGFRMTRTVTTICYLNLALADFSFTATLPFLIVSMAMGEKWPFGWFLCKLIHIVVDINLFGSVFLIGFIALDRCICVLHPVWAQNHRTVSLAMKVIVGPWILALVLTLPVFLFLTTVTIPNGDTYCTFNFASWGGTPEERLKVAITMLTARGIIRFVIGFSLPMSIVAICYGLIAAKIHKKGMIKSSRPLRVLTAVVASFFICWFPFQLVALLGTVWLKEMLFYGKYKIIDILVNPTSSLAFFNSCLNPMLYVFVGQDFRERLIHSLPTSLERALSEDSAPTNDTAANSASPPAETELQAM
VCAM-1 down imaging = inhibitors of TNFa-induced VCAM-1 surface display, imaging, high-content imaging, pooled HUVEC, TNFa stimulus (AID 456). HUVEC TNFa-induced VCAM-1 surface expression, immunofluorescence imaging; numbers were filed only for top-ranked candidate wells. inhibition, % at 5 µM; hits with a dose series show IC50 in µM. hit rate 0.2% among 10,000;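 active = top tenth filtered wells with inhibition above zero that passed visual or statistical confirmation; inactive = the rest, including hits rejected on review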;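 note: 0% = stimulated vehicle wells and 100% = unstimulated cells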
VCAM-1 down = suppression of endothelial VCAM-1 upregulation – cell-based, plate reader, pooled HUVEC, TNFa stimulus (AID 454). inhibition, % at 5 µM. HUVEC TNFa-induced VCAM-1 surface immunofluorescence, plate reader; numbers were filed only for top-ranked candidate wells. hit rate 0.2% among 10,000;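 active = compound among top-ranked inhibitors of TNF-induced VCAM-1 adhesion protein staining, with the hit upheld by image or statistical review; inactive = the rest, including hits rejected on review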;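 note: 0% = TNFa with vehicle and 100% = cells without TNFa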
VCAM-1 up imaging = enhancers of VCAM-1 display on endothelial cells, imaging, high-content imaging, pooled HUVEC, TNFa stimulus (AID 457). Pooled HUVEC, TNFa-induced VCAM-1 immunofluorescence imaging; hits of this screen are not shown here. calls only. hit rate 0.2% among 10,000;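 active = a top-ranked rise in VCAM-1 staining upheld on image or statistical review; inactive = the rest, including candidates rejected on review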;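 note: compounds tested at 5 µM in the well; cells exposed to compound for 24 hours before fixing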
* hit, by the source's call; i = inactive; nt = no result given.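 Rule for the calls, unless noted: active = mean above 30%; inconclusive = self-fluorescent; inactive = the rest.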 Not all compounds are listed; count on the stated rates, not on these rows.

SMILES	FPR binder	FPRL1 ligand	VCAM-1 down imaging	VCAM-1 down	VCAM-1 up imaging
Cc1ccc(C2CC(c3ccccc3C)n3nc(N)nc3N2)cc1 (configuration not stated)	0	3	nt	nt	nt
CC(NS(C)(=O)=O)C(c1cccs1)N1CCN(c2ccc(F)cc2)CC1 (configuration not stated)	2	-11	nt	nt	nt
CN1CCN(CC(=O)Nc2ccc(Cl)cc2Cl)CC1	21	4	i	i	i
Nc1ccnc(C(F)(F)F)c1C(=O)c1ccccc1	17	18	nt	nt	nt
CCCc1noc2c1C(c1ccoc1)C(C#N)=C(N)N2 (configuration not stated)	-3	6	nt	nt	nt
O=C(NC(O)C(=O)c1cccs1)c1cccnc1 (configuration not stated)	-2	-4	nt	nt	nt
COc1ccc(C(CC(=O)Nc2nccs2)n2cccc2)cc1 (configuration not stated)	2	1	nt	nt	nt
O=C(C1CCCN(Cc2ccc3c(c2)OCO3)C1)N1CCCC1 (configuration not stated)	4	10	nt	nt	nt
CCOc1ccc(CCNC(=O)Cn2c(-c3nonc3N)nc3ccccc32)cc1OCC	1	12	nt	nt	nt
COC(=O)C1C(=O)c2c([nH]c(C(=O)OC3CCCC3)c2C)CC1C (configuration not stated)	1	10	nt	nt	nt
Cc1ccc(S(=O)(=O)C2(C(=O)Nc3cccnc3)CC2)cc1	-2	1	i	i	i
CCOc1cc(NC2CS(=O)(=O)CC2O)c(OCC)cc1NC(=O)c1ccccc1 (configuration not stated)	-8	-1	nt	nt	nt
COc1ccc2c(c1)CCc1c(C(=O)N3CCCc4ccccc43)noc1-2	1	-1	i	i	i
O=c1cc(N2CCc3ccccc3C2)[nH]c(=O)n1Cc1ccc(F)cc1	-2	-7	nt	nt	nt
Cc1ccc2c(c1)[C@H]1OCC[C@H]1[C@@H](c1ccncc1)N2	-4	5	nt	nt	nt

Some entries already given, reduced to FPR binder.
Molecule,FPR binder
O=C(NC(O)C(=O)c1cccs1)c1cccnc1 (configuration not stated),-2
COc1ccc(C(CC(=O)Nc2nccs2)n2cccc2)cc1 (configuration not stated),2

(further entries)
SMILES	FPR binder	FPRL1 ligand	VCAM-1 down imaging	VCAM-1 down	VCAM-1 up imaging
CC1(C(=O)CSc2nc3ccccc3s2)CCC(=O)O1 (configuration not stated)	-7	1	i	i	i
CSc1nc2c(c(=O)n1Cc1ccccc1)SC(C)C2 (configuration not stated)	6	-2	nt	nt	nt
CCOC(=O)Cc1csc(NC(=O)c2cnc3scc(C)n3c2=O)n1	2	0	nt	nt	nt
COc1ccc2cc(C(c3nnnn3C(C)(C)C)N3CCc4ccccc4C3)c(=O)[nH]c2c1 (configuration not stated)	12	0	i	i	i
Cc1[nH]c(=O)[nH]c(=O)c1S(=O)(=O)N1CCCC(C(=O)NCCc2ccccc2)C1 (configuration not stated)	2	8	nt	nt	nt
COc1ccc(-c2[nH]c(-c3cccc(OC)c3)nc2SCC(=O)NCc2ccco2)cc1	9	6	i	i	i
CCN1CCN(c2ncc(C(=O)Nc3cc(Cl)ccc3OC)c3ccccc23)CC1	-2	5	nt	nt	nt
Cc1occc1C(=O)Nc1cccnc1	-4	-2	i	i	i
CCc1ccc(NC(=O)CS(=O)CC(=O)NCC2OCCc3ccccc32)cc1 (configuration not stated)	-3	4	i	i	i
COc1ccc2nc3oc(C(=O)NCc4cccs4)cc3cc2c1	3	-2	nt	nt	nt
Cn1c(=O)c(=O)n(C)c2cc(S(=O)(=O)N3CCC(Cc4ccccc4)CC3)ccc21	-1	-3	nt	nt	nt
CCSc1nnc(NC(=O)CSc2ncccn2)s1	-7	-3	i	i	i
O=C(NCc1ccco1)C(c1ccco1)N(C(=O)Cn1nnc2ccccc21)c1ccc2c(c1)CCC2 (configuration not stated)	14	-1	i	i	i
CC(C(=O)N1CCOCC1)N1c2cccc3cccc(c23)S1(=O)=O (configuration not stated)	3	0	i	i	i
O=C(CCSc1nc(-c2ccco2)cc(C(F)(F)F)n1)Nc1ccc2c(c1)OCO2	3	-3	i	i	i
Cc1ccc(-c2noc(CCC(=O)NCCCN3CCN(c4ccc(F)cc4)CC3)n2)cc1	-3	1	nt	nt	nt
CCn1c2c(c3cc(Cl)ccc31)CCCC2=O	-3	-1	nt	nt	nt
Brc1ccc(-c2csc(/N=C/N3CCOCC3)n2)cc1	-1	-3	i	i	i
O=C(Nc1ccc(Cl)cc1)N(Cc1cccnc1)Cc1ccco1	1	5	nt	nt	nt
COc1ccc(C)cc1NC(=O)CN1C(=O)c2ccccc2S1(=O)=O	-2	-8	nt	nt	nt
CC(=NCC1CCNCC1)C1=C(O)CC(C)(C)CC1=O	8	3	i	i	i
O=C(Cn1nc(Cc2ccncc2)c2ccccc2c1=O)N1CCc2ccccc2C1	0	-3	i	i	i
O=C(Cn1ncc2ccccc21)N1CCN(c2cccc(C(F)(F)F)c2)CC1	-4	-2	i	i	i
O=C1OC(c2ccc(O)cc2)(c2ccc(O)cc2)c2ccccc21	0	-5	i	i	i
COc1ccc(C2SCC(C(=O)O)N2C(C)=O)cc1OC (configuration not stated)	-4	1	nt	nt	nt
Cn1cnnc1SCC(=O)Nc1ccccc1Sc1ccccc1	6	-3	i	i	i
Cc1cc(NC(=O)c2cc(-c3ccc4c(c3)OCO4)on2)n(-c2ccccc2)n1	-5	-5	nt	nt	nt
CC(=O)N1CCc2cc(C(=O)CN3CCCN(Cc4ccc(F)cc4)C3)ccc21	4	-4	nt	nt	nt
NC(=O)CSc1nnc(Cn2c(=O)sc3ccccc32)n1-c1ccccc1	-8	0	nt	nt	nt
Cc1ccc(C(c2sc3nc(C)nn3c2O)N2CCOCC2)cc1 (configuration not stated)	4	2	nt	nt	nt
CCOCCCNC(=O)Cn1nc(-c2ccccc2)ccc1=O	-4	-1	nt	nt	nt
CCOC(=O)c1sc(=NC(=O)c2ccc(S(=O)(=O)N3CCOCC3)cc2)n(C)c1C	1	0	nt	nt	nt
COc1ccc(Cn2c(CCC(=O)Nc3ccc(CC#N)cc3)nc3cccnc32)cc1	-2	3	nt	nt	nt
COc1ccc(-n2c(Cn3c(=O)sc4ccccc43)nnc2SCC(=O)N2CCCCC2)cc1	-15	-12	nt	nt	nt
COc1ccccc1CN1C(=O)C2CC=CCC2C1=O (configuration not stated)	3	-1	nt	nt	nt
Cc1cc(C)n(-c2nc3c(c(=O)[nH]c(=O)n3C)n2Cc2ccc(F)cc2)n1	8	0	i	i	i
CC(=O)C1=C(O)C(=O)N(c2ccc(Br)cn2)C1c1ccccc1F (configuration not stated)	-13	-7	nt	nt	nt
Cc1c(NC(=O)c2cc(C(C)C)on2)c(=O)n(-c2ccccc2)n1C	-2	-4	nt	nt	nt
CCCCOC(=O)C1=C(C)Nc2ncnn2C1c1ccc(OC)c(OC)c1 (configuration not stated)	0	-9	nt	nt	nt
CN(C)c1ccc(NC(=O)CSCc2nc3c(nnn3Cc3ccc(F)cc3)c(=O)[nH]2)cc1	4	-3	i	i	i
CCOC(=O)C1=C(N)n2c(s/c(=C\c3cccnc3)c2=O)=C(C#N)C1c1cccnc1 (configuration not stated)	2	4	nt	nt	nt
Cc1cc(NC(=O)C2CCCN(S(=O)(=O)c3c(C)noc3C)C2)n[nH]1 (configuration not stated)	1	-3	nt	nt	nt
Clc1ccc2c(c1)[C@H]1OCC[C@H]1[C@@H](c1ccco1)N2	2	-1	i	i	i
CCC12CN3CC(CC)(CN(C1)C3c1ccc(OC(C)C)cc1)C2=O (configuration not stated)	0	1	nt	nt	nt
Cc1ccc(C2CC(c3ccc(C)cc3)n3nc(N)nc3N2)cc1 (configuration not stated)	-2	3	i	i	i

An excerpt taken from the entries so far:
SMILES	FPR binder	FPRL1 ligand	VCAM-1 down imaging	VCAM-1 down	VCAM-1 up imaging
COc1ccc(-n2c(Cn3c(=O)sc4ccccc43)nnc2SCC(=O)N2CCCCC2)cc1	-15	-12	nt	nt	nt
COc1ccccc1CN1C(=O)C2CC=CCC2C1=O (configuration not stated)	3	-1	nt	nt	nt
Cc1cc(C)n(-c2nc3c(c(=O)[nH]c(=O)n3C)n2Cc2ccc(F)cc2)n1	8	0	i	i	i
CC(=O)C1=C(O)C(=O)N(c2ccc(Br)cn2)C1c1ccccc1F (configuration not stated)	-13	-7	nt	nt	nt
Cc1c(NC(=O)c2cc(C(C)C)on2)c(=O)n(-c2ccccc2)n1C	-2	-4	nt	nt	nt
CCCCOC(=O)C1=C(C)Nc2ncnn2C1c1ccc(OC)c(OC)c1 (configuration not stated)	0	-9	nt	nt	nt
CN(C)c1ccc(NC(=O)CSCc2nc3c(nnn3Cc3ccc(F)cc3)c(=O)[nH]2)cc1	4	-3	i	i	i
CCOC(=O)C1=C(N)n2c(s/c(=C\c3cccnc3)c2=O)=C(C#N)C1c1cccnc1 (configuration not stated)	2	4	nt	nt	nt
Cc1cc(NC(=O)C2CCCN(S(=O)(=O)c3c(C)noc3C)C2)n[nH]1 (configuration not stated)	1	-3	nt	nt	nt
Clc1ccc2c(c1)[C@H]1OCC[C@H]1[C@@H](c1ccco1)N2	2	-1	i	i	i
CCC12CN3CC(CC)(CN(C1)C3c1ccc(OC(C)C)cc1)C2=O (configuration not stated)	0	1	nt	nt	nt
Cc1ccc(C2CC(c3ccc(C)cc3)n3nc(N)nc3N2)cc1 (configuration not stated)	-2	3	i	i	i

Continuation:
SMILES	FPR binder	FPRL1 ligand	VCAM-1 down imaging	VCAM-1 down	VCAM-1 up imaging
COc1ccccc1N1CCN(C(=O)c2cc(C3CC3)on2)CC1	-1	1	i	i	i
COc1cc(C2N(c3ccc(Cl)cc3)C(=O)C3CCCN32)cc(OC)c1OC (configuration not stated)	-4	2	nt	nt	nt
Cc1ccccc1-c1nc(CN2CCC(C(=O)NCCCN3CCOCC3)CC2)c(C)o1	-4	2	i	i	i
COc1ccc(NC(=O)CCc2nc(-c3ccc(C)cc3)no2)c(OC)c1	-4	-4	nt	nt	nt
COc1cccc(C2=NC(C)(C)NC(c3ccccc3O)C2)c1 (configuration not stated)	-2	-5	nt	nt	nt
O=C(CSc1nnc(Cc2cc(=O)[nH]c(=O)[nH]2)n1-c1ccc(Cl)cc1)NCC1CCCO1 (configuration not stated)	-6	0	nt	nt	nt
CCOC(=O)C1=C(N)OC2=C(C(=O)CC(C)(C)C2)C1c1ccco1 (configuration not stated)	5	7	i	i	i
CCOC(=O)N1CCC(NC(=O)c2cccc3c2C(=O)N(CCOC)C3)CC1	-1	-3	nt	nt	nt
CC(C)OC(=O)CSc1nnc(-c2cccnc2)n1Cc1ccccc1	-4	0	i	i	i
Cc1n[nH]c(C)c1S(=O)(=O)N(CC(=O)N1CCc2ccccc21)c1ccc(C(C)C)cc1	-5	-2	nt	nt	nt
COc1cccc(-c2nnc(SCC(N)=O)n2-c2ccc(Cl)cc2)c1	-4	1	i	i	i
CC(=O)C1C(c2cccc(F)c2)NC(=O)NC1(O)C(F)(F)F (configuration not stated)	2	-5	nt	nt	nt
CCOc1ccc(N(CC)C(=O)COc2cc(=O)n(C)c3ccccc23)cc1	2	23	i	74	i
COc1cccc(C2=NOC(C(=O)NC(C)(C)C)C2)c1 (configuration not stated)	-2	-6	nt	nt	nt
CCOC(=O)N1CCN(C(=O)C2CC(c3cc(OC)ccc3OC)=NO2)CC1 (configuration not stated)	-2	-1	nt	nt	nt
CCCN(c1nc(C)cc(OC)n1)S(=O)(=O)c1ccccc1	1	-10	nt	nt	nt
CC(=O)Nc1cccc(C(=O)Oc2cccc(C)c2)c1O	1	-9	nt	nt	nt
CC(=O)c1ccc(N2CCN(C(=O)C3CCCN(S(=O)(=O)c4cnc[nH]4)C3)CC2)cc1 (configuration not stated)	0	3	nt	nt	nt
Brc1ccccc1Cn1c(-c2cncs2)nc2ccccc21	-4	-6	nt	nt	nt
Cc1c(C(=O)OCCOC(C)C)[nH]c2c1C(=O)CC(C)(C)C2	-3	6	nt	nt	nt
COc1ccccc1NC(=O)CN1CCN(c2ccc(Cl)cc2)CC1	-6	-2	nt	nt	nt
O=C(CCn1nc(-c2ccc(Cl)cc2)ccc1=O)N1CCN(c2ccccn2)CC1	-12	-10	i	i	i
CCN(CC)CCNC(=O)Cc1c(C(=O)O)n(CC)c2ccccc12	2	7	nt	nt	nt
COc1cccc(N(C(=O)c2ccn[nH]2)C2(C(=O)Nc3c(C)cccc3C)CCCCC2)c1	1	7	nt	nt	nt
O=C1NC(c2ccco2)Nc2ccccc21 (configuration not stated)	-8	-1	i	i	i
Cc1noc(NS(=O)(=O)c2ccc(N/C=C/C(=O)c3cccnc3)cc2)c1C	-2	15	nt	nt	nt
O=C(NC1CCCCC1)c1cc2nc(-c3ccco3)cc(C(F)(F)F)n2n1	2	-3	i	i	i
O=S(=O)(Nc1ccc(Cc2ccncc2)cc1)N1CCCC1	8	-1	i	i	i
Cn1nc(-c2ccc(Cl)cc2)c2cc(C(=O)NC3CC3)sc21	7	-5	nt	nt	nt
Cc1ccc(-c2cc(C(=O)O)n[nH]2)o1	17	3	i	i	i
CCC1Oc2ccccc2N(CC(=O)NCCN2C(C)CCCC2C)C1=O (configuration not stated)	2	-4	nt	nt	nt
